CBX7 AlphaScr – blocks human CBX7 binding to H3K27me3 peptide | O95931 | AID 1224903 | 1.1% of 66,000 active | AlphaScreen His6-CBX7 / biotin-H3K27me3 peptide binding; stronger effect = lower value | normalised signal (fraction of DMSO) (concentration not given with the values); in the data active = normalised signal below about 0.5;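 also: 100 nL library stock added to about 20 µL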
Target sequence (O95931 whole entry, looked up): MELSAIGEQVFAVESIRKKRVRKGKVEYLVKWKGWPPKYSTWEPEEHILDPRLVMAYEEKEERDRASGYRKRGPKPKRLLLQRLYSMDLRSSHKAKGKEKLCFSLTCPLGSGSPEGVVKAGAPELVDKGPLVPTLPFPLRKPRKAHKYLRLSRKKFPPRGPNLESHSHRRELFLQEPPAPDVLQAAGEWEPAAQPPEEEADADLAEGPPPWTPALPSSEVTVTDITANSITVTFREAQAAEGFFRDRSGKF
CBX7 AlphaScr z-score – recorded beside CBX7 AlphaScr, whose call it bears; z-score; measured here: z-score of CBX7 signal; some inactives read as strong as hits; reference of the scale not given here;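 same signal on another scale; lower means less binding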
* marks the source's active call; other numbers are inactive results.

SMILES | CBX7 AlphaScr | CBX7 AlphaScr z-score
Cc1c(C(=O)Nc2cccc(Cl)c2)oc2ccc(S(=O)(=O)N(C)C3CCCCC3)cc12 | 1.07 | 2.69
O=C(Nc1ccc(S(=O)(=O)Nc2nccs2)cc1)c1cnc2sccn2c1=O | 1.04 | 0.519
COc1ccc(Cl)cc1C(=O)NCCc1cc2ccc(C)c(C)c2[nH]c1=O | 1.02 | 0.371
O=C(NCCc1nc(-c2ccccc2)cs1)c1ccc(Br)cc1 | 0.885 | -3.11
Cc1cccc(-c2nc(CN3CCCC(C(=O)NC4CCCCCC4)C3)c(C)o2)c1 (configuration not stated) | 0.903 | -1.4
Cc1c(CNCc2ccc3c(c2)OCO3)c(C(=O)O)c(C)n1Cc1ccccc1 | 0.989 | -0.348
O=C(O)c1cc(-n2c(/C=C\c3ccc(F)c(F)c3)nc3ccccc3c2=O)ccc1Cl | 0.992 | -0.132
Cc1cccc2nc(-c3cccnc3)c(Nc3ccccc3)n12 | 0.997 | -0.067
COc1ccccc1NC(=O)N(C1CCCC1)C1CCN(C(C)=O)CC1 | 0.762 | -0.939
Cc1oc(-c2ccccc2F)nc1CN1CCC(C(=O)NC2CC2)CC1 | 0.942 | -1.49
CN1CCN(c2nc3ccccc3nc2NS(=O)(=O)c2ccc(Cl)cc2)CC1 | 1.01 | 0.168
COc1ccc2c(c1)c(=O)c(S(=O)(=O)c1ccccc1)cn2Cc1cccc(C)c1 | 1.02 | 0.388
O=C(Nc1ccc2c(c1)Nc1ccccc1CC2)c1ccccc1 | 0.943 | -1.71
CCCN1CCN(CCCNC(=O)c2cc(=O)[nH]c3ccc(S(=O)(=O)N4CCCC4)cc23)CC1 | 1.05 | 0.537
O=C1c2ccccc2C(=O)N1CCc1nc(-c2ccccc2)c(Br)s1 | 1.13 | 3.19
Cc1nc2c(C(=O)NCCC(C)C)c[nH]n2c(=O)c1Cl | 0.959 | -0.253
Cc1ccc2c(c1)NC(=O)C(CC(=O)NCCN1CCCCCC1)O2 (configuration not stated) | 1.01 | 0.495
COc1cccc(CN2CCC(N3CCN(Cc4ccccc4)CC3)CC2)c1 | 1 | 0.0705
Cc1cc(C)n(Cc2ccc(F)cc2)c(=O)c1C#N | 1.13 | 1.63
CC(=O)Nc1nc2ccc(-c3nc4ccccc4o3)cc2s1 | 0.911 | -1.05

The list goes on (two carried over from the part before).
SMILES | CBX7 AlphaScr | CBX7 AlphaScr z-score
Cc1cc(C)n(Cc2ccc(F)cc2)c(=O)c1C#N | 1.13 | 1.63
CC(=O)Nc1nc2ccc(-c3nc4ccccc4o3)cc2s1 | 0.911 | -1.05
Cc1ccn2c(Nc3ccc(C(C)C)cc3)c(-c3cccs3)nc2c1 | 0.9 | -0.136
Cc1c(C(=O)Nc2ccc(F)cc2)oc2ccc(S(=O)(=O)N3CCCCC3)cc12 | 1.02 | 0.891
Cc1noc(/C=C/c2cccs2)c1S(=O)(=O)N1CCC(C(=O)NCCC(C)C)CC1 | 0.92 | -0.167
CCOc1ccc(NC(=O)CC2Nc3ccccc3NC2=O)cc1 (configuration not stated) | 0.973 | -0.756
COc1ccccc1OCc1nc(C#N)c(N2CC(C)CC(C)C2)o1 (configuration not stated) | 0.566 | -2.71
Cc1ccc(NS(=O)(=O)c2ccc3c(c2)CCN3C(=O)C2CCC2)c(Cl)c1 | 0.997 | -0.0817
CC(C)OC(=O)c1c(NC(=O)COc2cccc(C(F)(F)F)c2)sc2c1CCCC2 | 1 | 0.087
CCOC(CNC(=O)CSCc1nc(-c2ccc(OC)cc2)oc1C)OCC | 1.06 | 0.578
CCc1noc(-c2[nH]c3ccccc3c2C(=O)C(=O)N(C)C)c1C | 1.09 | 1.57
Cc1cc(F)ccc1NC(=O)CN1C(=O)COc2ccc(S(=O)(=O)N3CCC(C)CC3)cc21 | 1.02 | 0.344
Cc1ccc(CCNC(=O)C2CCN(S(=O)(=O)c3cnc[nH]3)CC2)cc1 | 0.897 | -1.33
Cc1cc(N2CCN(C)CC2)nc2ccc(NC(=O)Cc3ccc(Cl)cc3)cc12 | 1.05 | 1.68
Cc1ccc(S(=O)(=O)NC(C)C(c2cccs2)N2CCN(c3ccc(F)cc3)CC2)cc1 (configuration not stated) | 0.832 | -4.09
COc1ccc(C(=O)Nc2c(-c3ccccc3)nc3cc(C)ccn23)cc1 | 1.11 | 1.32
O=C(NCc1ccccc1)c1cccc2c3c([nH]c12)C(C(=O)O)CCC3 (configuration not stated) | 0.579 | -11.4
CC1CCN(c2nc3ccc(C(=O)O)cc3s2)CC1 | 0.772 | -1.73
CCN(c1ccc(C)c(C)c1)S(=O)(=O)c1ccc2c(c1)CCN2C(=O)C1CCC1 | 1 | -0.0111
Cc1cc(C)n(-c2nc3ccccc3nc2NCCc2ccccc2)n1 | 2.07 | 21.3
Cc1ccc2[nH]c(C)c(CN3CCCC3)c(=O)c2c1 | 0.984 | -0.273
CCCCN(CCCC)CCNC(=O)C1CCN(C(=O)c2cc3sccc3n2C)CC1 | 0.939 | -1.1

Ordered by value in CBX7 AlphaScr z-score (descending): five of the compounds above
structure,CBX7 AlphaScr z-score
Cc1cc(N2CCN(C)CC2)nc2ccc(NC(=O)Cc3ccc(Cl)cc3)cc12,1.68
CCc1noc(-c2[nH]c3ccccc3c2C(=O)C(=O)N(C)C)c1C,1.57
Cc1c(C(=O)Nc2ccc(F)cc2)oc2ccc(S(=O)(=O)N3CCCCC3)cc12,0.891
Cc1cc(F)ccc1NC(=O)CN1C(=O)COc2ccc(S(=O)(=O)N3CCC(C)CC3)cc21,0.344
Cc1ccc2[nH]c(C)c(CN3CCCC3)c(=O)c2c1,-0.273

Additional results follow:
SMILES | CBX7 AlphaScr | CBX7 AlphaScr z-score
COC(=O)c1cc2ccsc2n1CC(=O)NCCC1=CCCCC1 | 0.994 | -0.176
COc1ccc(-c2nc(-c3cccc(C)c3)no2)cc1OC | 1.02 | 0.678
CCOC(=O)C1CCCN(Cc2cn3c(-c4cccc(Br)c4)nnc3s2)C1 (configuration not stated) | 0.973 | -0.345
CC(C)OCCCNC(=O)C(=O)NCCc1c[nH]c2ccccc12 | 0.843 | -1.69
Cc1nn(Cc2ccccc2)c(C)c1NC(=O)c1cc(-c2cccc(Cl)c2)on1 | 1 | 0.0645
CCc1ccc(-n2c(C)nc3cc(C(=O)O)ccc32)cc1 | 1.17 | 1.59
COc1ccc(NC(=O)CSc2nc(-c3ccc(F)cc3)[nH]c2-c2ccccc2)cc1 | 0.803 | -9.36
COCCCNC(=O)c1ccc2c(c1)ncn2-c1ccc(F)c(F)c1 | 0.808 | -2.29
Cc1nn(C)c(C)c1S(=O)(=O)N(CC(=O)Nc1ccccn1)c1ccc(C(C)C)cc1 | 1.09 | 0.621
Cc1ccc(OCc2nc3ccccc3n2CCc2ccccc2)cc1 | 1.02 | 0.55
Cc1cc(N2CCC(C(=O)NCc3cccnc3)CC2)n2nc(C)c(-c3ccc(Cl)cc3)c2n1 | 1.03 | 1.61
Cc1[nH]c2c(ccc3ccccc32)c(=O)c1CN1CCCC1 | 0.998 | -0.0272
O=C(CN1CCCC1)NCC1(c2ccccc2)CCOCC1 | 0.976 | -0.769
Cc1oc(-c2ccccc2)nc1Cn1c(SCc2ccc(F)cc2)nc2ccncc21 | 0.938 | -1.55
CCCN(C(=O)Cn1ncc2c1-c1ccccc1OC2)c1ccccc1F | 0.759 | -6.93
CCCCNC(=O)CCn1nc(-c2ccc(Cl)cc2)ccc1=O | 1.06 | 1.18
Cc1ccc(C2CC(=O)c3cnc(N4CCOCC4)nc3C2)cc1 (configuration not stated) | 1.01 | 0.365
COc1ccc(Nc2nnc(-c3ccc(C)c(S(=O)(=O)NCCO)c3)c3ccccc23)cc1C(N)=O | 0.993 | -0.00768
Cc1cccc(NC(=O)c2cccc(COc3cccc4ccccc34)c2)n1 | 1.1 | 2.61
CCC(Cc1ccccc1)NC(=O)CN1C(=O)CCSc2ccccc21 (configuration not stated) | 1 | 0.162

Three records drawn at random from those above:
SMILES | CBX7 AlphaScr | CBX7 AlphaScr z-score
Cc1cccc(NC(=O)c2cccc(COc3cccc4ccccc34)c2)n1 | 1.1 | 2.61
COC(=O)c1cc2ccsc2n1CC(=O)NCCC1=CCCCC1 | 0.994 | -0.176
O=C(CN1CCCC1)NCC1(c2ccccc2)CCOCC1 | 0.976 | -0.769

(listing goes on)
SMILES | CBX7 AlphaScr | CBX7 AlphaScr z-score
COC(=O)c1c(NC(=O)c2cccc(C(F)(F)F)c2)sc2c1CCCCCC2 | 1.46 | 11
O=C(O)CNc1c2ccccc2nc2ccccc12 | 1.06 | 0.753
Cn1c(C(=O)N2CCCC(C(=O)N3CCN(c4ccccc4)CC3)C2)cc2sccc21 (configuration not stated) | 0.723 | -7.97
COc1ccc(Nc2nc(-c3cc4cc(OC)ccc4oc3=O)cs2)cc1 | 0.852 | -2.04
COc1ccc(CCNC(=O)c2cc3sc(Cl)cc3n2C)cc1OC | 0.966 | -1.35
CC(C)COc1ccc(C(=O)Nc2ccc3oc(-c4ccc(N(C)C)cc4)nc3c2)cc1 | 0.929 | -0.777
C=CCNc1ncnc2sc3c(c12)CCCC3 | 0.851 | -2.36
COc1cccc(Nc2nc(C)nc3sc(C)c(C)c23)c1 | 0.795 | -1.98
COc1ccc(Cl)cc1NC(=O)CSc1nccn1-c1cc(C)cc(C)c1 | 0.697 | -11.4
COc1cc2c(C(=O)NCc3cccs3)cn(CC(C)C)c(=O)c2cc1OC | 0.994 | -0.00597
Cc1ccc(N2C(=O)CC3CS(=O)(=O)CC32)c(C)c1 (configuration not stated) | 1.05 | 1.59
CCn1c(C)nc2cc(S(=O)(=O)Nc3ccc(C)cc3)ccc21 | 0.933 | -1.66
COc1ccccc1-c1cc(C(=O)Nc2ccc(F)cc2F)no1 | 0.971 | -0.326
COc1cccc2ccc(/C=C/c3ccc(Cl)cc3)nc12 | 1.69 | 27.6
Cc1cccc(NC2c3ccccc3C(=O)N2c2ccc(Cl)cn2)c1C (configuration not stated) | 0.927 | -1.04
CCOc1ccccc1NC(=O)CSc1nnc(CNC(=O)c2c(F)cccc2Cl)o1 | 1.06 | 2.52
Cc1ccc(NC(=O)Cc2cn(C)c3ccccc23)cc1F | 0.836 | -3.5
COc1cccc(-c2nn(C)c3sc(C(=O)Nc4ccc(F)c(Cl)c4)cc23)c1 | 1.03 | 1.53
COc1ccccc1-c1cc2nc(C)c(CCC(=O)NC3CCCC3)c(C)n2n1 | 0.997 | -0.0942
CCOC(=O)N1CCC(NC(=O)c2cccc3c2C(=O)N(c2ccc(OC)cc2)C3)CC1 | 0.474* | -8.18*
COc1ccc(NS(=O)(=O)c2ccc3c(c2)CCN3C(=O)C2CC2)cc1 | 0.942 | -1.75
Cc1cccc(OCC(=O)Nc2ncc(Cc3ccc(Cl)cc3)s2)c1 | 1.05 | 0.307
COc1ccc(-c2noc(N(C)CC(=O)Nc3ccc(Br)cc3C)n2)cc1 | 1.03 | 0.992
COc1cc(-c2nc(-c3cccc(C)c3)no2)cc(OC)c1OC | 1.13 | 2.47
Cc1c(C(=O)N2CCOCC2)sc2ncn(CC(=O)Nc3cccc(C(F)(F)F)c3)c(=O)c12 | 1.17 | 1.66
Cc1ccn2c(-c3csc(Nc4ccc(S(N)(=O)=O)cc4)n3)c(C)nc2c1 | 0.905 | -0.112
Clc1ccccc1COc1ccc(CNCc2cccnc2)cc1 | 0.938 | -0.678
CCN(CCNC(=O)c1cc(Nc2cc(OC)ccc2OC)nc2ccccc12)c1ccccc1 | 0.91 | -2.51
Cc1cccc(C(=O)NCc2nc3ccccc3n2Cc2ccccc2F)c1 | 0.815 | -2.13

Screens from PubChem BioAssay.

Not all compounds are listed. The share of hits here may be higher or lower than overall.
